USP2a inhib = qHTS Assay for Inhibitors of Ubiquitin-specific Protease USP2a | Ubiquitin carboxyl-terminal hydrolase 2 (Homo sapiens), O75604 | USP2a enzymatic assay, qHTS inhibition | Potency, µM (top dose mostly 38.3 µM), for the others: top-dose activity change, negative = inhibition, actives largely listed as inhibitors | 60,000 tested, 0.1% active;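 also: potency is read from the fitted curve at half-maximal effect; nearly all actives have a fitted effect of over 60% in size; plate controls were DMSO for no effect and NEM full inhibition control for full effect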
Target sequence (O75604 whole entry, looked up): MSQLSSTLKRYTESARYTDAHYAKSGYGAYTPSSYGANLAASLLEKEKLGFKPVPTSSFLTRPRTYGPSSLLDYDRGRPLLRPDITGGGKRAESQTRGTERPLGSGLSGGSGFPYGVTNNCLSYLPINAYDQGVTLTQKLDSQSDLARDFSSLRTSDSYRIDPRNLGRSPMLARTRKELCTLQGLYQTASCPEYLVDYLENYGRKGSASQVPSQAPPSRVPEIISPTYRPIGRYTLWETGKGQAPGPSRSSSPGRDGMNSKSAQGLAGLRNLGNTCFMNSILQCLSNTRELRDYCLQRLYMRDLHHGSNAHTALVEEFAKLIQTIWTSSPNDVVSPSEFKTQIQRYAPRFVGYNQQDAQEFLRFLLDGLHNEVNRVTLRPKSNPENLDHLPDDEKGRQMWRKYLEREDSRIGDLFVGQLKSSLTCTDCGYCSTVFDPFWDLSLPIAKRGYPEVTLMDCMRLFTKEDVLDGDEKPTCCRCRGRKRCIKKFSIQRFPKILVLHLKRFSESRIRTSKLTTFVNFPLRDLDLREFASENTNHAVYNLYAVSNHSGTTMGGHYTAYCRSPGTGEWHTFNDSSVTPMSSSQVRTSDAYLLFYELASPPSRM
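Inhibition is measured in a cell-free coupled assay with 20 nM USP2 core, 20 nM Ub-PLA2 and 20 uM NBD C6-HPC, 2.5 h incubation. Activity normalized to NEM control.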
ERK AVP inh = qHTS Assay for Inhibitors of the ERK Signaling Pathway using a Homogeneous Screening Assay; AID 995, 2007; Potency, µM (titrated, usually from 57.5 µM), without a hit: at the top dose activity, negative = inhibition, actives largely listed as inhibitors; 72,000 tested, 0.99% active; HEK293-V1b, vasopressin-stimulated pERK AlphaScreen; also: potency is read from the fitted curve at half-maximal effect; % is scaled to controls: 0 for no effect and ±100 for the full control effect; nearly all actives have a fitted effect of over 55% in size
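qHTS, compounds titrated on V1b-expressing HEK293 cells. Preincubation 30 min at 37C, vasopressin 25 nM for 5 min, lysis 10 min, bead incubation 5 hr at room temperature.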
TexasRed autofl = qHTS Assay for Spectroscopic Profiling in Texas Red Spectral Region; Compound fluorescence, Texas Red channel, 547/618 nm; stronger effect = higher value; max dye-equivalent concentration, M; 59,000 tested, 0.06% active; AID 587, 2007; in the data active = max dye-equivalent concentration above about 10 nM; inconclusive = between about 1.1 nM and that limit
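Compound titrations in 100 mM Tris pH 8.0 were incubated 15 min at room temperature and read at 547 nm excitation / 618 nm emission. Texas Red six-point standard curve on each plate converted fluorescence to dye-equivalent concentration.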
Rhodamine fluor = qHTS Assay for Spectroscopic Profiling in Rhodamine Spectral Region. AID 594, 2007. max dye-equivalent concentration, M. 59,000 tested, 0.05% active. Rhodamine-region fluorescence, 547/598 nm, Tris buffer; stronger effect = higher value; in the data active = max dye-equivalent concentration above about 11 nM; inconclusive = between about 1.1 nM and that limit
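Read-out is relative fluorescence at 547 nm excitation and 598 nm emission, expressed as dye-equivalent concentration using rhodamine standards on every plate. Each compound was profiled across a concentration series after 15 min in 100 mM Tris, pH 8.0.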
An asterisk follows results filed as active; i = inactive; ? = inconclusive; . = no result given; [ ] = remark or other dose. Unless noted, calls follow the shape of the dose curve; as a rule, active = well fitted inhibition curve with a large enough effect; inconclusive = small, poorly fitted or top-dose-only effect; inactive = no such curve, though single readings can be large or run the other way. A portion of the library, so the mix of outcomes need not match the whole.

#1 COc1ccc2c(c1)c(CC(=O)O)c(C)n2C(=O)c1ccc(Cl)cc1
#2 Cc1cn([C@H]2C[C@H](N=[N+]=[N-])[C@H](CO)O2)c(=O)[nH]c1=O
#3 CN1CCC[C@@H]1c1cccnc1.O=C(O)c1ccccc1O.O=C([OH2+])c1ccccc1O.O=C([OH2+])c1ccccc1O.[Mn]
#4 CN1CCC[C@@H]1c1cccnc1.O=C(O)c1ccccc1O.O=C([OH2+])c1ccccc1O.O=C([OH2+])c1ccccc1O.O=C([OH2+])c1ccccc1O.[Mn]
#5 CN1C(C(=O)Nc2ccccn2)=C(O)c2sccc2S1(=O)=O
#6 O=C(O)CCC(=O)C(=O)O (tested in a mixture with another compound)
#7 CCOC(=O)N1CCC(=C2c3ccc(Cl)cc3CCc3cccnc32)CC1
#8 O=C(O)CC(O)C(=O)O (stereo not given)
#9 NCCCC(=O)O
entry no. | 1 | 2 | 3 | 4 | 5 | 6 | 7 | 8 | 9
Rhodamine fluor | i | i | i | i | i | . | i | i | i
TexasRed autofl | i | ? | i | i | i | . | ? | i | i
ERK AVP inh | 22% | -4%[11.5 µM] | -19%[11.5 µM] | 11%[11.5 µM] | 1% | -13% | 20µM* | 6% | 19%
USP2a inhib | -2% | 4% | . | . | 3% | -4% | 61%[activator] | 0% | 10%

Shown with two lines to a compound: entries from further up.
Results follow in this order: Rhodamine fluor | TexasRed autofl | ERK AVP inh | USP2a inhib
3	CN1CCC[C@@H]1c1cccnc1.O=C(O)c1ccccc1O.O=C([OH2+])c1ccccc1O.O=C([OH2+])c1ccccc1O.[Mn]
    i | i | -19%[11.5 µM] | .
2	Cc1cn([C@H]2C[C@H](N=[N+]=[N-])[C@H](CO)O2)c(=O)[nH]c1=O
    i | ? | -4%[11.5 µM] | 4%
8	O=C(O)CC(O)C(=O)O (stereo not given)
    i | i | 6% | 0%

Gathered by group: the compounds so far with a Cl atom
#1 COc1ccc2c(c1)c(CC(=O)O)c(C)n2C(=O)c1ccc(Cl)cc1
#7 CCOC(=O)N1CCC(=C2c3ccc(Cl)cc3CCc3cccnc32)CC1
entry no. | 1 | 7
Rhodamine fluor | i | i
TexasRed autofl | i | ?
ERK AVP inh | 22% | 20µM*
USP2a inhib | -2% | 61%[activator]

Shown bar-delimited: two of the compounds above
item | SMILES | Rhodamine fluor | TexasRed autofl | ERK AVP inh | USP2a inhib
6 | O=C(O)CCC(=O)C(=O)O (tested in a mixture with another compound) | . | . | -13% | -4%
7 | CCOC(=O)N1CCC(=C2c3ccc(Cl)cc3CCc3cccnc32)CC1 | i | ? | 20µM* | 61%[activator]

Screens (PubChem)
